HCMV NEC inh: inhibitors of HCMV UL50-UL53 interaction, biochemical, HTRF; HCMV UL50-UL53 nuclear egress complex (human cytomegalovirus); normalized percent inhibition; inhibition, % (test concentration not listed); actives 0.15% (n = 190,000);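 active = both replicates at 50% or more, plus weaker picks with an unusually low signal ratio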;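 also: stock transfer was 100 nL into about 20 µL; 0% = negative control wells and 100% = wells with untagged competitor protein; inactives centre near -12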
GIV-Gai inh: inhibitors of GIV peptide binding to Galpha-i3, primary screen, biochemical, fluorescence polarization, FITC-GIV GBA peptide, rat Galphai3; Guanine nucleotide-binding protein G(i) subunit alpha-3 (Rattus norvegicus), P08753; 90 min; stronger effect = lower value; scaled: aluminum fluoride 0%, vehicle 100%; percent of control (FP), % (no concentration beside the values); actives 0.42% (n = 210,000); AID 1224905, 2016;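 active = replicate mean at 85% of control or lower, very high polarization wells dropped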;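 also: wells of about 15 µL received 100 nL stock; the first replicate is given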
Target sequence (P08753 whole entry, looked up): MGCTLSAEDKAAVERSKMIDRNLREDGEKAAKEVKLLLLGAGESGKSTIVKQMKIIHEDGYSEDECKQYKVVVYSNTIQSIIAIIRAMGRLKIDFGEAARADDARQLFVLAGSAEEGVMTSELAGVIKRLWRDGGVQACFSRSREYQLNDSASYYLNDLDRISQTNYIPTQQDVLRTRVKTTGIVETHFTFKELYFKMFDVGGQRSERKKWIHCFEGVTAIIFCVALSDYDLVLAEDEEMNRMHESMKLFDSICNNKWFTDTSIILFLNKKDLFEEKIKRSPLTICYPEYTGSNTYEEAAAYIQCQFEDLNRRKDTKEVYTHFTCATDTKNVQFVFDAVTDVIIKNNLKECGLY
Sa growth inh: S. aureus growth inhibition at 42 and 30 °C, primary screen, LtaS inhibitor project, RN4220, two temperatures | OD600, 20 h, 42 °C; stronger effect = lower value | relative growth, % (test concentration not listed) | AID 720641, 2013 | actives 0.53% (n = 170,000);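 active = growth at 42 °C up to 50% and 20 or more points under that at 30 °C, or under 10% at both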;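 also: 300 nL library stock went into each well; scaled to the means of positive and negative controls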
Sa growth inh second temp: recorded beside Sa growth inh, whose call it bears; relative growth, %; measured here: growth at 30 °C;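 optical density after 20 h as mean of two plates; 100% = untreated growth and lower means inhibition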
An asterisk follows results filed as active; x = not tested or not shown; & = joins results of further samples. Random draw from the library; 0.83% or so of the library scored in one or more.

SMILES	HCMV NEC inh	GIV-Gai inh	Sa growth inh	Sa growth inh second temp
O=C(CC1c2ccccc2CCN1S(=O)(=O)c1ccc(F)cc1)OCC(=O)N1CCCCC1 (configuration not stated)	10	x	110	95
COc1ccc2nc(Nc3nc4ccccc4c(=O)[nH]3)nc(C)c2c1	-2	109	x	x
O=C(CCS(=O)(=O)c1ccc2c(c1)NC(=O)CS2)Nc1ccc(Cl)cc1	-9	114	x	x
COc1ccc(OC)c(/C=C2/C(=O)NC(=O)N(c3ccc(Br)c(C)c3)C2=O)c1	-24	106	x	x
Cc1ccc2c3c(ccc2n1)NC1=C(C(=O)CCC1)C3c1ccccc1C (configuration not stated)	-11	x	90	88
CCC(=O)N1c2ccccc2CC1C(=O)NCc1cc(Br)ccc1OC (configuration not stated)	x	102	102	98
CC1(C)C=C(O)C(C2(O)C(=O)c3ccccc3C2=O)C(=O)C1 (configuration not stated)	63	x	125	92
O=c1oc2ccccc2c(O)c1Sc1ccc(Cl)cc1	-13	x	75	35
CN(C(=O)NC(=O)Nc1ccc(Cl)cc1Cl)S(C)(=O)=O	-23	x	87	93
Nc1ncnc2c1ncn2C1CCC(CO)C(O)C1 (configuration not stated)	-32	x	106	94
CC1CC(C)CN(c2ccc3nncn3n2)C1 (configuration not stated)	-4	102	101	79
COc1cccc(C2C(C(=O)/C=C/c3ccco3)=C(O)C(=O)N2CCN2CCOCC2)c1 (configuration not stated)	-57	104	93	82
O=c1[nH]nc2c3ccccc3n(Cc3cccc(F)c3)cc1-2	-49	95	x	x
COc1ccc2c(c1)cc(C(=O)NCCC1=CCCCC1)n2C	12	100	x	x
O=C(NN1C(=O)/C(=C\c2cccnc2)SC1=S)c1ccccc1	x	100	60	51
CCc1ccc(S(=O)(=O)NCc2cn3ccsc3n2)cc1	-34	108	87	82
Oc1ccc(CNc2ccc(F)cc2)c2cccnc12	-20	x	56	49
CN(C)C(Cc1ccccc1)C(=O)C(C)(C)C (configuration not stated)	-7	x	99	98
Cc1ccc(CNC(=O)c2ccc(CSCc3ccccc3C)o2)cc1	x	99	58	49
O=C(Nc1ccc(N2CCOCC2)cc1)C12CC3CC(CC(C3)C1)C2	-9	102	110	102
CCn1ccc2cc(S(=O)(=O)N3CCCC(C(=O)NC)C3)ccc21 (configuration not stated)	-8	107	x	x
C#CCOc1ccc(OC)cc1/C=C(/C#N)c1ccc(C#N)cc1	-10	108	91	93
Cc1nc2ccccc2c(=O)[nH]1	-10	101	105	104
O=C(/C=C/O)c1cccc(OCc2ccc(Cl)cc2Cl)c1	-17	100	x	x
CCC1(C)OC(=O)N(C2CC(C)(C)NC(C)(C)C2)C1(C)O (configuration not stated)	-11	97	99	88
NC(=O)c1nsc(C(=O)N(CC(=O)NCc2ccc3c(c2)OCO3)C2CCCCC2)c1N	-45	99	111	72
C(=NC1CCCCCCCCCCC1)c1ccco1	-25	104	107	91
CCN(CC)CCOC(=O)c1ccc(NC(=O)CCCN2C(=O)/C(=C/c3ccc(OC)cc3)SC2=S)cc1	-46	95	x	x
CCC(C)NC(=O)c1ccc(Cl)cc1 (configuration not stated)	-19	x	96	88
Cn1c(=O)c2c(n3c(SCC(N)=O)nnc13)-c1ccccc1CC21CCCCC1	-3	104	117	89
CCOc1ccc(C2Nc3ccccc3NC3=C2C(=O)CC(c2ccc(OC)c(OC)c2)C3)cc1 (configuration not stated)	-19	93	x	x
Cc1cccc(N2CCN(C(=O)C3CCCN(c4nc5ccccc5n5cccc45)C3)CC2)c1C (configuration not stated)	-16	98	x	x
O=C1CCCc2cc(S(=O)(=O)NCC3CCC(C(=O)Nc4ccc(Cl)cc4)CC3)ccc2N1 (configuration not stated)	-26	102&106	134	110
Cc1c(Br)c([N+](=O)[O-])nn1CC(=O)Nc1sc2c(c1C(=O)OC(C)C)CCC(C)C2 (configuration not stated)	-21	93	x	x
O=C(NCN1CCN(CNC(=O)c2ccccc2)CC1)c1ccccc1	-42	103	86	81
O=c1oc2ccccc2c(Cl)c1Cc1ccccc1	0	99	110	79
COc1ccc(C(=O)NC2CC(=O)N(c3ccc4c(c3)OCCO4)C2)cc1 (configuration not stated)	x	101	93	93
O=C(Nc1nc(-c2ccccc2)cc(-c2ccccc2)n1)c1ccccc1F	18	107	x	x
Cc1noc(C)c1COC(=O)c1ccc2[nH]c3c(c2c1)CCCC3	-7	x	43	54
CN(C)c1nc2ncnc(SCC(=O)Nc3ccc(Br)cc3)c2s1	-17	114	x	x
Clc1cc(Cl)cc(Oc2nc(-c3ccccc3)ns2)c1	-33	99	104	86
O=C(CSc1nc2c([nH]c3ccccc32)c(=O)n1-c1ccc(F)cc1)NCc1ccco1	x	100	97	84
Oc1c(CN2CCOCC2)ccc(CN2CCOCC2)c1O	x	103	80	72
O=C(/C=C/c1cn(CC(O)CN2CCc3ccccc32)c2ccccc12)c1ccc(Br)cc1 (configuration not stated)	-1	119	114	98
CC(C(=O)NCc1ccccc1)N1CCc2ccccc2C1 (configuration not stated)	-13	x	91	95
O=C1CC(c2nc3ccccc3[nH]2)CN1c1cccc(Cl)c1 (configuration not stated)	-22	106	102	74
COc1ccc(-c2nn(CN3CCC(C(N)=O)CC3)c(=S)n2-c2ccccc2)cc1OC	5	107	99	100
COc1cc(Cl)c(C)cc1NCC(=O)N1CCOCC1	-28	x	103	89
CCC(C)NC(=O)c1ccccc1NC(=O)C1=CSCCO1 (configuration not stated)	-16	104	94	88
COc1ccc(OCc2nc(N)nc(Nc3ccc(C)cc3)n2)cc1	-13	x	89	84
O=C(CSc1ccnc(=O)[nH]1)NCc1ccc(F)cc1	x	108	103	100
C=CCNC(=O)c1ccccc1NC(=O)CC	-16	99	91	102
CCOC(=O)c1[nH]c(=O)[nH]c1COC(=O)c1cc2ccccc2o1	-2	104	118	93
O=C(O)c1cc(C23CC4CC(CC(C4)C2)C3)ccc1O	x	102	70	66
COc1cccc(OC)c1C(=O)OCC(=O)c1ccccc1	3	104	100	98
O=C1CCC(=O)N1CC(=O)N(c1ccccc1)c1ccccc1	-27	104	94	78
CCCOc1cccc(C(=O)Nc2ccc(Cc3ccncc3)cc2)c1	-18	109	95	60
O=S(=O)(NCCc1c[nH]c2ccccc12)c1cccc2nsnc12	-42	97	95	83
c1ccc(CN2CCN(c3c4c(nc5nc(-c6ccccc6)nn35)CCCC4)CC2)cc1	-2	100	x	x
CCOC(=O)N1CCN(C(=S)Nc2ccc(OC(F)F)cc2)CC1	1	x	109	92

Arranged by molecular weight (largest number first): some entries from above
SMILES	HCMV NEC inh	GIV-Gai inh	Sa growth inh	Sa growth inh second temp
O=C(/C=C/c1cn(CC(O)CN2CCc3ccccc32)c2ccccc12)c1ccc(Br)cc1 (configuration not stated)	-1	119	114	98
COc1ccc(-c2nn(CN3CCC(C(N)=O)CC3)c(=S)n2-c2ccccc2)cc1OC	5	107	99	100
O=C(CSc1nc2c([nH]c3ccccc32)c(=O)n1-c1ccc(F)cc1)NCc1ccco1	x	100	97	84
c1ccc(CN2CCN(c3c4c(nc5nc(-c6ccccc6)nn35)CCCC4)CC2)cc1	-2	100	x	x
CN(C)c1nc2ncnc(SCC(=O)Nc3ccc(Br)cc3)c2s1	-17	114	x	x
O=C(Nc1nc(-c2ccccc2)cc(-c2ccccc2)n1)c1ccccc1F	18	107	x	x
COc1ccc(C(=O)NC2CC(=O)N(c3ccc4c(c3)OCCO4)C2)cc1 (configuration not stated)	x	101	93	93
CCOC(=O)N1CCN(C(=S)Nc2ccc(OC(F)F)cc2)CC1	1	x	109	92
O=S(=O)(NCCc1c[nH]c2ccccc12)c1cccc2nsnc12	-42	97	95	83
O=C(NCN1CCN(CNC(=O)c2ccccc2)CC1)c1ccccc1	-42	103	86	81
CCCOc1cccc(C(=O)Nc2ccc(Cc3ccncc3)cc2)c1	-18	109	95	60
COc1ccc(OCc2nc(N)nc(Nc3ccc(C)cc3)n2)cc1	-13	x	89	84
CCOC(=O)c1[nH]c(=O)[nH]c1COC(=O)c1cc2ccccc2o1	-2	104	118	93
Cc1noc(C)c1COC(=O)c1ccc2[nH]c3c(c2c1)CCCC3	-7	x	43	54
Clc1cc(Cl)cc(Oc2nc(-c3ccccc3)ns2)c1	-33	99	104	86
O=C1CC(c2nc3ccccc3[nH]2)CN1c1cccc(Cl)c1 (configuration not stated)	-22	106	102	74
Oc1c(CN2CCOCC2)ccc(CN2CCOCC2)c1O	x	103	80	72
COc1cccc(OC)c1C(=O)OCC(=O)c1ccccc1	3	104	100	98
COc1cc(Cl)c(C)cc1NCC(=O)N1CCOCC1	-28	x	103	89
CC(C(=O)NCc1ccccc1)N1CCc2ccccc2C1 (configuration not stated)	-13	x	91	95
O=C(CSc1ccnc(=O)[nH]1)NCc1ccc(F)cc1	x	108	103	100
O=C(O)c1cc(C23CC4CC(CC(C4)C2)C3)ccc1O	x	102	70	66
C=CCNC(=O)c1ccccc1NC(=O)CC	-16	99	91	102

In another format: entries from further up.
Each structure is followed by: HCMV NEC inh	GIV-Gai inh	Sa growth inh	Sa growth inh second temp
> O=C1CCC(=O)N1CC(=O)N(c1ccccc1)c1ccccc1
  -27	104	94	78
> COc1ccc(-c2nn(CN3CCC(C(N)=O)CC3)c(=S)n2-c2ccccc2)cc1OC
  5	107	99	100
> CCOC(=O)N1CCN(C(=S)Nc2ccc(OC(F)F)cc2)CC1
  1	x	109	92

Next compounds.
SMILES	HCMV NEC inh	GIV-Gai inh	Sa growth inh	Sa growth inh second temp
COc1ccc2c(c1)c1ncn(C)c(=O)c1n2Cc1ccccc1	-3	106	109	87
CCOC(=O)C1CCCN(C(=O)Cn2nc(C)n3nc(-c4ccc(OC)cc4)cc3c2=O)C1 (configuration not stated)	5	101	95	94
Cc1ccccc1C1C(C#N)=C(N)NC(S)=C1C#N (configuration not stated)	-9	111	89	54
O=C(NCCCSc1ccccn1)Nc1nccs1	-24	102	93	84
COc1cccc(C(Nc2nc(C)cc(C)n2)c2cc(C)sc2NC(=O)c2ccccc2)c1OC (configuration not stated)	-8	108	x	x
c1ccc2nc3c(nc2c1)oc1ccccc13	-71	x	133	85
COCCOC(=O)c1cnn2c(C(F)(F)F)cc(-c3ccc(OC)c(OC)c3)nc12	-18	110	x	x
O=C(O)Cc1cc2c(cc1Br)OCCO2	-4	x	82	100
CSc1ccc(C2N=C(c3ccccc3)NO2)cc1 (configuration not stated)	-20	x	90	97
CNCc1ccc(C)cc1C	-13	x	91	96
O=c1cc(O)n(Cc2ccco2)c(=S)[nH]1	13	102	112	100
CCc1ccc2c(CC(=O)N3CCN(S(=O)(=O)c4ccc5c(c4)OCCO5)CC3)coc2c1	-10	x	94	94
CC(C)NC(=O)c1cccc2sc(N3CCCc4ccccc43)nc12	x	103	93	92
CCc1c(O)c(Cc2ccccc2)c(=O)n(-c2nccs2)c1-c1ccccc1	-31	102	154	90
Clc1ccc2c(Sc3nncn3-c3ccccc3)ccnc2c1	-32	x	88	74
COc1ccc(Cl)cc1NC(=O)C1Nc2cc(F)ccc2S(=O)(=O)N1 (configuration not stated)	-10	101	x	x
COc1cc(OC)cc(C(=O)Nc2cc(-c3nc4cccnc4s3)ccc2C)c1	-29	107	93	78
CC(=O)Oc1ccc2cc(-c3ccc4c(c3)OCCO4)c(=O)oc2c1	-23	102	110	60
O=C1c2ccccc2C(=O)N1CCCn1ccnc1	-59	108	85	99
COc1ccc(N2C(=O)CC(Cc3ccccc3)C2=O)cc1 (configuration not stated)	x	99	99	86
NC(=O)NC(=O)CSc1n[nH]c(-c2cccs2)n1	-27	x	95	89
O=C(NCCn1cc(SCc2ccccc2)c2ccccc21)c1cccs1	4	99	70	85
O=C(O)c1ccccc1C(=O)OCc1ccccc1	x	105	119	97
Cc1ccc(-n2ncc3c(N4CCN(Cc5ccccc5)CC4)ncnc32)cc1	x	108	115	97
COc1ccc(CCC(=O)NCCc2nc(-c3ccccc3)n[nH]2)cc1	-20	97	x	x
CCOC(=O)CSc1nc2c(sc3ccccc32)c(=O)n1CCc1ccccc1	x	105	111	88
CCn1cnc(S(=O)(=O)N2CCC(C(=O)NC3CCC(C)CC3)CC2)c1 (configuration not stated)	-26	106	x	x
NNC(=O)CCCSc1nc2ccccc2s1	-4	x	98	77
COc1cc(-c2cc(-c3ccccc3)nc3sc(C(=O)O)c(N)c23)cc(OC)c1OC	-70	112	x	x

High-throughput results: PubChem BioAssay, ICCB-Longwood Screening Facility, Harvard Medical School
